Compound activity deposited in PubChem by National Center for Advancing Translational Sciences (NCATS).
StopGo reporter = High Throughput Screening for Foot and Mouth Disease Virus Antivirals; human cells with a luciferase reporter of 2A StopGo recoding; control for the full effect not named in the record; Potency, µM (series often up to 57.9 µM), inactives show at the top dose signal change, negative = less light; AID 1159524, 2015; 410,000 tested, 1.2% active; active = well fitted falling curve with a large enough effect; inconclusive = small, poorly fitted or top-dose-only effect; inactive = no such curve, though single readings can be large or run the other way; tested in HEK293T cells; also: % is scaled to controls: 0 for no effect and ±100 for the full control effect; nearly all actives have a fitted effect of over 45% in size; luciferase light after 4 h
Cruzain inh noDet = qHTS Assay for Promiscuous and Specific Inhibitors of Cruzain (without detergent); Potency, µM, inactives show max response, negative = inhibition, hits mostly inhibitors; purified cruzain, Z-FR-AMC fluorescence, no detergent; 200,000 tested, 2.3% active; Cruzipain (Trypanosoma cruzi), P25779;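 also: plate controls were enzyme without inhibitor for no effect and buffer without enzyme for full effect; nearly all actives have a fitted effect of over 40% in size; top concentration of the series not given in the record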
Target sequence (P25779 123-467 limits assumed): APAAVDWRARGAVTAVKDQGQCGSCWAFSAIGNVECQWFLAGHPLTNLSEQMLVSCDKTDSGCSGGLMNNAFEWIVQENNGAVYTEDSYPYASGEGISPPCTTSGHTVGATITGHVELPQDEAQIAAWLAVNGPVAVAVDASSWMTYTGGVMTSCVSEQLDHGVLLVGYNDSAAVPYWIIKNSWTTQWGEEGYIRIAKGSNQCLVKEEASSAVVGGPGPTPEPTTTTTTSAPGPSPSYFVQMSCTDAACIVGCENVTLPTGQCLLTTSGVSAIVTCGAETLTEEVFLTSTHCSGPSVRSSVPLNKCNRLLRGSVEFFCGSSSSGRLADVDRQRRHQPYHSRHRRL
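Detergent-free condition (0.00005% Triton X-100) in acetate buffer pH 5.5 with DTT. 1.5 nM enzyme and compound were pre-mixed 15 min, then 2 uM Z-FR-AMC substrate added; reaction progress from fluorescence change between first and third reads (60 s).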
RE007 growth inh = qHTS Assay for Inhibitors of the HIV-1 protein Vpr; S. pombe RE007 Vpr strain, BacTiter-Glo ATP luminescence, 24 h; control for the full effect not named in the record; Potency, µM (titrated, usually from 92.2 µM), without a hit: top-dose activity change, negative = less growth; 360,000 tested, 0.21% active; active = well fitted falling curve with a large enough effect; inconclusive = small, poorly fitted or top-dose-only effect; inactive = no such curve, though single readings can be large or run the other way;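 also: % is scaled to controls: 0 for no effect and ±100 for the full control effect; nearly all actives have a fitted effect of over 50% in size; the assay follows cell death caused by Vpr and the record does not say whether a fall means rescue or toxicity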
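Fission yeast strain RE007, carrying one chromosomally integrated HIV-1 vpr copy, was seeded at OD 0.01 in PMG+AL medium with 23 nL pinned compound. After 24 h at 30 °C and 99% humidity, viability was read by BacTiter-Glo luminescence.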
MARV entry inh = qHTS for inhibitors of binding or entry into cells for Marburg Virus | Marburg virus pseudotyped entry inhibition, cell reporter; control for the full effect not named in the record; about a third of the inactives were read at about 46 µM | Potency, µM (titrated, usually from 37.8 µM), for inactives: at the highest dose activity change, negative = inhibition, most hits filed as inhibitors | 300,000 tested, 1.8% active | AID 540276, 2011; active = well fitted inhibition curve with a large enough effect; inconclusive = small, poorly fitted or top-dose-only effect, or effect the other way; inactive = flat fitted curve, though single readings scatter; tested in HEK293 cells; about a fifth of its hits are not listed in these tables; also: % is scaled to controls: 0 for no effect and ±100 for the full control effect; luciferase read-out
Lassa entry inh = qHTS for Inhibitors of binding or entry into cells for Lassa Virus; Lassa virus pseudotype entry inhibition, cell reporter; control for the full effect not named in the record; 300,000 tested, 1.2% active; AID 540256, 2011; Potency, µM (top dose mostly 37.9 µM), without a hit: top-dose activity change, negative = inhibition, usual class: inhibitors; active means well fitted inhibition curve with a large enough effect; inconclusive means small, poorly fitted or top-dose-only effect, or effect the other way; inactive means flat fitted curve, though single readings scatter; tested in HEK293 cells; also: % is scaled to controls: 0 for no effect and ±100 for the full control effect; nearly all actives have a fitted effect of over 50% in size; luciferase read-out
Cruzain inh Det = qHTS Assay for Promiscuous and Specific Inhibitors of Cruzain (with detergent) | Potency, µM, for inactives: max response, negative = inhibition, most hits filed as inhibitors | 200,000 tested, 0.43% active | purified cruzain, Z-FR-AMC fluorescence, 0.01% Triton;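 also: plate controls were neutral wells for no effect and buffer without enzyme for full effect; nearly all actives have a fitted effect of over 40% in size; top concentration of the series not given in the record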
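Purified cruzain (1.5 nM final) was preincubated with compounds for 15 min at room temperature in 100 mM sodium acetate pH 5.5, 5 mM DTT, 0.01% Triton X-100. Reaction started with 2 uM Z-FR-AMC; AMC fluorescence change over 60 s gave activity.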
NS1 inh = qHTS Assay for Inhibitors of Influenza NS1 Protein Function | S. cerevisiae slowed by influenza A NS1, growth recovery by OD600 | Potency, µM (top dose mostly 46.1 µM), without a hit: top-dose activity, positive = more growth | 270,000 tested, 0.4% active | AID 2326, 2010; active means well fitted rising curve with a large enough effect; inconclusive means small, poorly fitted or top-dose-only effect; inactive means no such curve, though single readings can be large or run the other way; also: nearly all actives have a fitted effect of over 50% in size
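S. cerevisiae expressing influenza A NS1, grown in glucose, washed, then diluted 1:100 into pH 6.0 -URA galactose medium with 23 nl compound. Growth recovery read as OD600; NS1-free strain serves as control.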
SARS PLP yeast = qHTS of Yeast-based Assay for SARS-CoV PLP | AID 485353, 2010 | 330,000 tested, 0.19% active | S. cerevisiae expressing SARS-CoV PLpro, growth rescue; control for the full effect not named in the record | Potency, µM (titrated, usually from 32.9 µM), without a hit: at the top dose activity, positive = growth rescue; active means well fitted rising curve with a large enough effect; inconclusive means small, poorly fitted or top-dose-only effect; inactive means no such curve, though single readings can be large or run the other way; also: 0% is about no effect; nearly all actives have a fitted effect of over 55% in size; growth read by luminescence after 48 h
* hit, by the source's call; u = inconclusive; x = not tested or not shown; [ ] = remark or other dose. Unless noted, calls follow the shape of the dose curve; as a rule, active = well fitted curve in the direction sought with a large enough effect; inconclusive = small, poorly fitted or top-dose-only effect, or another doubt; inactive = no such curve, though single readings can be large; an effect the other way counts as inactive or inconclusive. Potency is read from the fitted curve at half-maximal effect.

SMILES	MARV entry inh	Lassa entry inh	RE007 growth inh	Cruzain inh Det	NS1 inh	StopGo reporter	SARS PLP yeast	Cruzain inh noDet
Cc1ccc(CNC(=O)CCNC(=O)Cn2ccc3ccccc3c2=O)cc1	u	2.5%	-12.0%	7.1%	8.4%	14.2%	1.5%	-12.4%
COCC(=O)N1CCC(Oc2ccc(C(=O)N3CCSCC3)cc2)CC1	-7.7%	18.3%	-16.2%	x	3.4%	0.7%	-2.7%	x
C/C(CC(=O)Nc1cccnc1)=N\NC(=O)C(=O)NC(C)C	x	x	0.4%	x	0.0%	-14.1%	0.8%	x
N#CCc1nc(-c2cc3ccccc3oc2=O)cs1	u	-4.0%[46.1 µM]	14.9%	x	x	-16.0%	-1.7%	x
Cc1ccc(N2C(=O)c3oc4ccccc4c(=O)c3C2c2cccc(O)c2)nc1 (stereo not drawn)	0.0%	x	4.8%	x	-47.4%	-16.1%	x	x
O=C(O)c1c[nH]c2ccc(S(=O)(=O)N3CCN(c4ccc(F)cc4)CC3)cc2c1=O	10.6%	21.4%	0.6%	-4.4%	u	4.6%	-0.1%	22.6%
O=c1[nH]c2ccc(Br)cc2c(-c2ccccc2)c1N1CCOCC1	x	x	5.8%	-4.3%	-32.2%	-29.8%	u	u
c1cncc(-c2nnc(SCc3nc4ccccc4[nH]3)o2)c1	3.0%	-2.0%	1.5%	-1.7%	0.8%	-23.4%	-2.1%	u
CC(C)(C)c1ccc(S(=O)(=O)NCC2CCCO2)cc1 (stereo not drawn)	x	x	6.3%	x	-1.7%	10.7%	4.4%	x
CC1CCN(CCNC(=O)c2ccc3c(=O)n(Cc4ccc(Cl)cc4)c(=S)[nH]c3c2)CC1	x	x	1.7%	x	11.5%	u	-0.3%	x
Cc1ccc(OCCCNC2CCCC2)cc1	16.4%	-1.1%	4.2%	-2.9%	3.6%	3.2%	5.8%	1.3%
CCOc1ccc(C(=O)NCCN2CCOCC2)cc1	12.0%	29.5%	-12.5%	x	7.8%	15.3%	-1.6%	x
O=C(Cn1c(=S)[nH]c2ccccc21)c1ccccc1	u	u	-6.9%	-1.6%	22.6%	-8.4%	-1.6%	6.1%
COc1ccc(C(=O)NCc2cccnc2)cc1S(=O)(=O)N1CCOCC1	5.0%	-2.3%	6.8%	0.5%	-2.1%	6.1%	-2.3%	3.3%
COc1ccc(OC)c(NC(=O)C2CC(=O)N(Cc3ccco3)C2)c1 (stereo not drawn)	8.1%	16.1%	2.3%	x	x	-15.2%	1.1%	x
CN1CCN(C(=O)C2=C[C@@H](c3ccc(Br)cc3)C[C@@H](OCc3ccc(CO)cc3)O2)CC1	x	x	1.4%	x	0.5%	-2.7%	-2.7%	x
CCN(C(=O)COC(=O)c1cc2ccccc2cc1O)C1CCS(=O)(=O)C1 (stereo not drawn)	10.4%[46.1 µM]	-22.1%	-6.4%	1.3%	-0.2%	-16.5%	1.6%	25.1%
CCCCOc1ccc(-c2nc(-c3cccnc3)no2)cc1	u	-2.0%	0.9%	-1.0%	-0.3%	-27.0%	-0.8%	u
O=S(=O)(Cc1nnnn1-c1ccccc1)c1ccc(Cl)cc1	6.7%	u	-1.6%	x	3.6%	10.2%	-1.7%	x
CSc1nc(C=Nc2ccccc2Cl)c(O)n1Cc1cccc(Cl)c1	u	4.6%	2.6%	x	-2.6%	10.6%	-1.1%	x
O=C(C1CCOCC1)N1CCCC(N2CCN(c3ccc(F)cc3)CC2)C1 (stereo not drawn)	x	x	8.5%	x	8.7%	-2.1%	3.2%	x
Cc1onc(-c2ccccc2Cl)c1C(=O)OCC(=O)Nc1ccc2c(c1)OCO2	-0.7%	4.2%	-0.5%	-0.8%	-24.4%	3.8%	1.3%	u
Cc1sc(=NC(=O)c2ccco2)n(C)c1-c1ccccc1	u	u	-5.2%	-4.9%	-75.2%	x	-25.9%	-18.0%
CCOC(=O)C1CCc2nc3ccccc3c(=O)n21 (stereo not drawn)	u	-4.9%	-7.7%	0.8%	-6.6%	-9.3%	7.2%	-3.0%
CCOc1cc(/C=C2/C(=N)N3N=C(CC)SC3=NC2=O)ccc1OC(=O)c1ccco1	27.6%	u	3.3%	x	-24.5%	-18.5%	-9.5%	x
O=C(COC(=O)c1ccc2c(c1)OCCO2)Nc1cccc(S(=O)(=O)N2CCOCC2)c1	0.7%	x	5.8%	x	x	-4.4%	1.7%	x
COc1ccc(NC(=O)C(NC(=O)c2ccc(=O)[nH]c2)c2ccc(OC)cc2)cc1 (stereo not drawn)	u	4.0%	3.6%	6.7%	-7.3%	u	4.2%	8.4%
COc1ccc(NC(=O)CSc2nc3scc(C)c3c(=O)[nH]2)cc1	-6.0%	3.5%	-4.7%	x	10.1%	-9.5%	-1.7%	x
NS(=O)(=O)c1ccc(CNC(=O)c2cc(-c3ccccc3)nc3ccccc23)cc1	1.3%	u	-3.6%	x	0.2%	7.7%	0.6%	x
CCN(CC)C(=O)CC1(c2ccccc2OC)CCOC(C(C)C)C1 (stereo not drawn)	-13.4%	u	14.5%	-2.0%	7.6%	-12.3%	-0.1%	7.2%
Cc1cc(C)cc(NS(=O)(=O)c2ccc3oc(=O)ccc3c2)c1	1.7%	-6.8%	-1.2%	-8.0%	-95.9%	0.0%	3.7%	3.4%
CCOC(=O)c1cccc(NC(=O)c2cccs2)c1	23.1%[46.1 µM]	1.6%	-26.8%	-2.1%	-153.5%	3.6%	-13.6%	-6.1%
COc1ccc(OC)c(N=Cc2c(O)[nH]c3ccccc23)c1	-14.8%	4.0%	5.7%	5.7%	5.4%	-14.6%	-9.7%	-18.4%
CCCCN(NC(C)=O)c1nc(Cl)nc(NC(C)C)n1	-17.7%	18.3%	-1.1%	3.7%	1.9%	x	5.8%	3.3%
Cc1ccc(-c2nn3c(C)nnc3s2)cc1NC(=O)c1ccc(OC(C)C)cc1	x	x	10.4%	-1.1%	-44.7%	-4.3%	2.8%	3.6%
COC(=O)c1nnn(Cc2ccccc2)c1N	8.9%	-0.5%	0.3%	0.7%	-22.9%	8.1%	8.9%	12.1%
COc1ccc(CCNC(=O)CSc2nc(-c3ccco3)cc(C(F)(F)F)n2)cc1	-14.5%	17.6%	-0.6%	-6.3%	-7.5%	-4.2%	-3.8%	u
COc1cccc(Sc2nc(-c3ccccc3)ncc2S(C)(=O)=O)c1	x	x	-7.9%	x	1.6%	-16.5%	-1.2%	x
COc1ccc(CN2C(=O)N(c3ccccc3)C(=O)C2CC(=O)Nc2ccccc2)cc1OC (stereo not drawn)	-11.7%[46.1 µM]	-18.4%	0.7%	x	x	-15.9%	-4.5%	x
O=C1CC(c2cccc(Oc3ccccc3)c2)NC(=O)N1 (stereo not drawn)	-5.1%	-4.2%	-10.2%	2.0%	-4.2%	-14.4%	-2.3%	1.1%

Molecules shown so far containing an aryl thioether with sulfur outside any ring (five):
SMILES	MARV entry inh	Lassa entry inh	RE007 growth inh	Cruzain inh Det	NS1 inh	StopGo reporter	SARS PLP yeast	Cruzain inh noDet
c1cncc(-c2nnc(SCc3nc4ccccc4[nH]3)o2)c1	3.0%	-2.0%	1.5%	-1.7%	0.8%	-23.4%	-2.1%	u
CSc1nc(C=Nc2ccccc2Cl)c(O)n1Cc1cccc(Cl)c1	u	4.6%	2.6%	x	-2.6%	10.6%	-1.1%	x
COc1ccc(NC(=O)CSc2nc3scc(C)c3c(=O)[nH]2)cc1	-6.0%	3.5%	-4.7%	x	10.1%	-9.5%	-1.7%	x
COc1ccc(CCNC(=O)CSc2nc(-c3ccco3)cc(C(F)(F)F)n2)cc1	-14.5%	17.6%	-0.6%	-6.3%	-7.5%	-4.2%	-3.8%	u
COc1cccc(Sc2nc(-c3ccccc3)ncc2S(C)(=O)=O)c1	x	x	-7.9%	x	1.6%	-16.5%	-1.2%	x

Next section
SMILES	MARV entry inh	Lassa entry inh	RE007 growth inh	Cruzain inh Det	NS1 inh	StopGo reporter	SARS PLP yeast	Cruzain inh noDet
Brc1ccc2oc3c(N4CCOCC4)ncnc3c2c1	u	-0.3%	-8.9%	-8.5%	-32.4%	-5.8%	0.9%	-10.9%
Cc1ccc(NC(=O)c2cccc(C(=O)OC(C)C)n2)c(Br)c1	20.3%	2.6%	-8.9%	x	x	9.8%	-1.4%	x
CC(=O)N1CCc2cc(Br)cc(S(=O)(=O)N3CCCCCC3)c21	1.5%	1.2%	-7.9%	-0.3%	-22.1%	-8.8%	-19.7%	u
Cc1cc(-n2c(SCC(=O)NCc3ccccc3)nc3ccsc3c2=O)ccc1Cl	x	u	x	-1.2%	x	-24.0%	x	0.3%
N#C/C(=C\C=C\c1ccccc1)C(=O)Nc1ccccc1	-20.1%	-1.1%	1.6%	-1.7%	-6.6%	1.5%	-1.0%	u
COc1ccc(NC(=O)CSc2nnc(-c3ccc(C)cc3)n2N)cc1	-0.7%	-1.5%	14.7%	-0.2%	-2.7%	18.9%	-9.2%	10.5%
C[C@H](NC(=O)c1nc[nH]c1C(=O)NC(c1ccccc1)c1ccccc1)C(=O)OC(C)(C)C	x	x	-14.9%	x	u	-21.4%	0.6%	x
CCN(CC)S(=O)(=O)c1ccc(NC(=O)[C@H](CCSC)N2Cc3ccccc3C2=O)cc1	-18.1%[46.1 µM]	-17.1%[46.1 µM]	x	-0.7%	x	-15.0%	x	11.8%
COc1ccc(O)c(-c2cc(-c3ccccc3Cl)[nH]n2)c1	x	x	u	x	-137.1%	85.7%[activator]	-32.1%	x
